# Compound activity as filed in PubChem BioAssay.
# CtBP-E1A inh = CtBP/E1A binding inhibition | AlphaScreen GST-E1A/His-CtBP binding, 1536-well; active compounds read low; control for the full effect not named in the record | AID 651724 | activity change, % (test concentration not listed) | hit rate 0.49% among 340,000; in the data active means activity change below about -65%; inconclusive means about -30% to -65%; inactive means above about -30%; further: on the % scale 0 is the no-effect control and ±100 the full control effect
#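 Homogeneous bead-based format: GST-tagged E1A captured on glutathione donor beads, His-tagged CtBP on nickel acceptor beads; compounds precede bead addition by 2 h at 37 °C.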
# Six1-Eya2 inh = inhibitors of human Six1/Eya2 interaction; Q15475+O00167; AlphaScreen GST-Six1/His-Eya2 binding, biochemical; active compounds read low; control for the full effect not named in the record; activity change, % (test concentration not listed); hit rate 0.56% among 360,000; AID 651725; in the data active = activity change below about -65%; inconclusive = about -30% to -65%; inactive = above about -30%; further: on the % scale 0 is the no-effect control and ±100 the full control effect
#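 AlphaScreen luminescence read after one hour at 37 °C in darkness. Pin-transferred compounds met GST-Six1 and His-Eya2 protein (5X stock 250 nM/500 nM) plus glutathione donor and Ni-chelate acceptor beads (5X, 50 ug/mL).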
# TRPML1 ag = human mucolipin-1 channel agonism; hit rate 0.12% among 410,000; activation, % (concentration not given with the values); AID 624414; TRPML1-expressing cells, Ca2+ dye fluorescence, FDSS; host cell line not named in the record; reference of the full effect not given here; in the data active = activation above about 50%; inconclusive = about 30% to 50%; inactive = below about 30%; further: 0% is about no effect; the text of the record puts the active cut at 80%
# Target sequence (Q9GZU1 whole entry, looked up): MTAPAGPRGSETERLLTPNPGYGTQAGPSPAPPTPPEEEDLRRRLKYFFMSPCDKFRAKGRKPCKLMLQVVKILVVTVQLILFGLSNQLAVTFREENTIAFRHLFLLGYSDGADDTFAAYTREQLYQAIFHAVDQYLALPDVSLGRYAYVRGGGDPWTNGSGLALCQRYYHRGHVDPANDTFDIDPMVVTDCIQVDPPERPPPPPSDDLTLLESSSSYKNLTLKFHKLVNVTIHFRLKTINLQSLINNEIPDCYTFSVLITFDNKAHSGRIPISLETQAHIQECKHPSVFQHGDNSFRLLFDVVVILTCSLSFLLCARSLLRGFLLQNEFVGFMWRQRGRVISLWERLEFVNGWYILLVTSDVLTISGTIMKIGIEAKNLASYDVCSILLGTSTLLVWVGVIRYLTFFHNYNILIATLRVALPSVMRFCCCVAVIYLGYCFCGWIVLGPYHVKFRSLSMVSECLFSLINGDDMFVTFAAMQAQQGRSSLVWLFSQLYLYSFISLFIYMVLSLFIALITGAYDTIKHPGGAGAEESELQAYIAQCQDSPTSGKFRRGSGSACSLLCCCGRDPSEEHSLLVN
#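 Agonist activity was taken from a 110 s kinetic Ca2+ dye read on the FDSS after pinning compounds onto TRPML1-DL cells. The cells were seeded at 1,500/well with Tet inducer, incubated about 16 h, then dye-loaded at room temperature.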
# D2 ag = activates the human D2 dopamine receptor. P14416. DiscoveRx PathHunter D2 beta-arrestin, luminescence, 90 min; 100% = 57 uM dopamine signal. activation, % (concentration not given with the values). hit rate 0.084% among 360,000; in the data active = activation above about 40%; inconclusive = about 15% to 40%; inactive = below about 15%; further: compound concentration not given in the record; the text of the record calls up to 30% inactive
# Target sequence (P14416 whole entry, looked up): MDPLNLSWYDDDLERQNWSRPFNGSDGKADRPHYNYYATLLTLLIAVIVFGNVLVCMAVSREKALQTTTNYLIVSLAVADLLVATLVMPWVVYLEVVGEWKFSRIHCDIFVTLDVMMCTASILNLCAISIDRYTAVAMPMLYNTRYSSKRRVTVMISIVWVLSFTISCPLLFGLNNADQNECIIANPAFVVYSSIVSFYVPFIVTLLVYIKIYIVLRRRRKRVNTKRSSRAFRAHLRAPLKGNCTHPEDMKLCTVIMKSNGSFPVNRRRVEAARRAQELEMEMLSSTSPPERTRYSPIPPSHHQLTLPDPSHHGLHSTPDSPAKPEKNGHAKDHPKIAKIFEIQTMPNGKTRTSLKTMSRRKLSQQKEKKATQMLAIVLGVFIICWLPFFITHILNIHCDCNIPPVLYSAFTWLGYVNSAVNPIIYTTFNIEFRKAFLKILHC
#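 Agonist mode: compounds alone added to overnight-plated D2 PathHunter cells for 90 min at 37 C, with 57 uM final dopamine (EC100) defining full response. Beta-arrestin recruitment detected by chemiluminescent reagent, read after 1 h at ambient temperature.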
# D2 potentiator = potentiates the human D2 dopamine receptor allosterically. DiscoveRx D2 beta-arrestin cells, luminescence, 90 min; 100% = 57 uM dopamine signal. P14416. hit rate 0.23% among 360,000. potentiation, % (concentration not given with the values); active = potentiation of 50% or more; inconclusive = 30% to 50%; inactive = 30% or less;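 further: compound concentration not given in the record; tested on top of an EC20 dose of dopamine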
#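 PathHunter D2 cells, attached overnight at 37 deg C, received compound in DMSO plus dopamine at EC20 (50 nM final) for 90 min at 37 deg C. Beta-arrestin recruitment was read as luminescence after 1 h with detection reagent at ambient temperature.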
# PINK1 expr mod = modulators of PINK1 expression; PINK1 immunofluorescence, high-content cytometry, 24 h; AID 624263; Potency, µM (series often up to 76.6 µM), for inactives: at the highest dose activation (PINK1 increase), actives largely listed as activators; hit rate 0.2% among 410,000; active = well fitted activation curve with a large enough effect; inconclusive = small, poorly fitted or top-dose-only effect; inactive = flat fitted curve, though single readings scatter; cell line not stated here;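 further: potency means the concentration at half of the fitted maximal effect; % of control where 0% means no effect; nearly all actives have a fitted effect of over 65% in size; a mitochondrial uncoupler was the plate control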
#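 Compound titrations (5 concentrations, 24 h) on a stable cell line; DMSO and CCCP controls. Endpoint: fixed-cell PINK1 immunofluorescence with mitochondrial, cell and nuclear markers, scanned by microplate cytometer.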
# Starred values were filed as active, the others as inactive; u = inconclusive; x = no result given; & = joins results of further samples; [ ] = dose if it differs, or a comment.
SMILES,CtBP-E1A inh,Six1-Eya2 inh,TRPML1 ag,D2 ag,D2 potentiator,PINK1 expr mod
Cc1cccc(C)c1NC(=O)COC(=O)CCc1ccc(S(=O)(=O)N2CCCCC2)cc1,7,1,0.8,-1.7,6,1.6%
O=C(c1ccccc1F)N1CCN(S(=O)(=O)c2ccc(S(=O)(=O)N3CCCCC3)cc2)CC1,8,3,0.7,0.1,-25,x
Cc1ccc(NC(=O)CN2C(=O)N/C(=C\c3cccnc3)C2=O)cc1,x,-2,0.9,3.9,-9,3.7%
Cn1c(=O)n(C)c2cc(/C=N/NC(N)=S)ccc21,0,-4,0.3,4.0,-41,2.7%
Cc1c(NC(=O)C(C)OC(=O)CCOc2ccccc2)c(=O)n(-c2ccccc2)n1C (stereo unspecified),2,-4,-0.1,-5.8,-9,-1.8%
CC(=O)c1ccc(OC(C)C)c(CSC(=N)N)c1,3,1,-0.7,-5.2,-4,-0.5%
CCn1c(SCC(N)=O)nnc1-c1ccc(OC)c(OC)c1,4,2,0.0,-3.3,-2,8.1%[38.3 µM]
COc1ccccc1CN1C[C@@H]2C[C@@H](c3[nH]c4ccc(C)cc4c3C)N3CCC[C@@]23C1=O,-15,-8,1.0,1.4,-11,2.8%
COc1ccc(CNC(=O)c2nn(C)c3c2CS(=O)(=O)c2ccccc2-3)cc1,x,-1,0.0&-0.3,-5.4,-15,1.2%&0.8%
Cc1c(C=N)c(O)n(C)c(=O)c1C#N,2,-20,-0.2,-6.6,-2,-0.5%

# Entries shown so far with nitrogen in an aromatic ring (7):
SMILES,CtBP-E1A inh,Six1-Eya2 inh,TRPML1 ag,D2 ag,D2 potentiator,PINK1 expr mod
Cc1ccc(NC(=O)CN2C(=O)N/C(=C\c3cccnc3)C2=O)cc1,x,-2,0.9,3.9,-9,3.7%
Cn1c(=O)n(C)c2cc(/C=N/NC(N)=S)ccc21,0,-4,0.3,4.0,-41,2.7%
Cc1c(NC(=O)C(C)OC(=O)CCOc2ccccc2)c(=O)n(-c2ccccc2)n1C (stereo unspecified),2,-4,-0.1,-5.8,-9,-1.8%
CCn1c(SCC(N)=O)nnc1-c1ccc(OC)c(OC)c1,4,2,0.0,-3.3,-2,8.1%[38.3 µM]
COc1ccccc1CN1C[C@@H]2C[C@@H](c3[nH]c4ccc(C)cc4c3C)N3CCC[C@@]23C1=O,-15,-8,1.0,1.4,-11,2.8%
COc1ccc(CNC(=O)c2nn(C)c3c2CS(=O)(=O)c2ccccc2-3)cc1,x,-1,0.0&-0.3,-5.4,-15,1.2%&0.8%
Cc1c(C=N)c(O)n(C)c(=O)c1C#N,2,-20,-0.2,-6.6,-2,-0.5%

# Additional records follow.
SMILES,CtBP-E1A inh,Six1-Eya2 inh,TRPML1 ag,D2 ag,D2 potentiator,PINK1 expr mod
Cc1cccc(NC(=S)NNc2ncc(C(F)(F)F)cc2Cl)c1,3,0,-0.4,-10,-42,20µM*
CCOC(=O)CC(=O)CSc1nc2c(c(-c3cccs3)c1C#N)CCC2,x,5,0.6,-5.7,-5,5.0%
Cc1cc(O)cc2c1C1CCC3(C)C(O)CCC3C1C=C2 (stereo unspecified),-6,2,0.6,4.5,-4,4.0%
O=C1/C(=C/c2cccnc2)SC(=S)N1CC1CCCO1 (stereo unspecified),13,-4,0.5,1.5,14,9.0%
CCN(C(=O)COC(=O)c1cccnc1Nc1ccccc1F)C1CCS(=O)(=O)C1 (stereo unspecified),-6,3,0.9,-2.5,-5,-0.8%
Cc1cccc(CN2CCN(CC(=O)NCc3cccs3)C2=O)c1,4,2,-0.7,-2.9,-15,-1.3%
COC(=O)c1c(-c2c(Cl)cccc2Cl)noc1NC(=O)NN1CCCCC1,-6,-7,6.7,-4.4,-4,-0.9%
Cc1cc(OCC(=O)Nc2cc(C(C)(C)C)on2)ccc1[N+](=O)[O-],-7,-7,1.6,-3.3,-14,2.0%
CCC(=O)c1cc(-c2nc3ccccc3n2C)n(C)c1,-1,2,1.2,-0.1,-7,0.4%
O=C(CN1CCC(NC(=O)Nc2ccccc2)CC1)Nc1cccc([N+](=O)[O-])c1,18,1,-0.6,1.2,-9,-1.3%
O=C(NCc1ccc2c(c1)OCO2)c1nc(S(=O)(=O)Cc2ccccc2)ncc1Cl,1,14,0.9,-4.9,-11,-1.8%
O=C(CN1CCN(c2ccccc2)CC1)NCc1ccc(F)cc1,-4,2,0.4,3.6,-14,-1.8%
CCCOc1ccc(F)cc1-c1cc(C(=O)Nc2ccc(C(C)C)cc2)[nH]n1,0,24,1.4,-2.6,-1,11%
COc1ccc(NC(=O)C2CCCN(S(=O)(=O)c3ccccc3)C2)c(OC)c1 (stereo unspecified),-1,1,0.8,0.2,0,3.5%
COc1ccc(-n2c(SCC(=O)Nc3cc(C)on3)nc3c([nH]c4ccccc43)c2=O)cc1OC,-15,-17,2.2,2.7,4,3.7%
COC(=O)c1nn(-c2ccccc2)c(-c2ccccc2)c1C(=O)c1ccccc1,6,0,3.1,1.1,-30,-3.0%
Cc1ccc2ncccc2c1NC(=S)NC(=O)c1ccccc1,-1,-1,-0.9,-8.3,-7,1.1%
O=C(Nc1cccc(-c2nc3ccccc3[nH]2)c1)c1cccc(NC(=O)c2ccco2)c1,-2,-21,3.3,5.1,-6,-14%[38.3 µM]
CC(C)(C)c1cc(NC(=O)Nc2ccc(Br)cc2Cl)no1,4,2,1.1,8.3,-6,-2.0%
O=C(CN1CCN(S(=O)(=O)/C=C/c2ccccc2)CC1)NCC(F)(F)F,4,4,-0.3,-0.8,-3,1.4%
COc1ccc(-c2noc(-c3ccccc3-c3ccccc3)n2)cc1,39,38,0.2,-0.3,0,11%[38.3 µM]
CC(C)c1ccc2[nH]c3c(c2c1)[C@@H]1CCN2C(=O)CCC[C@H](C3)[C@H]12,-5,-11,2.7,-0.3,-3,0.2%
COC(=O)c1cc(C(=O)OCC(=O)Nc2ccc(N3CCOCC3)cc2)cc([N+](=O)[O-])c1,2,3,2.2,6.5,-1,-0.3%
COc1ccc(CCNc2ccc(C(CC(N)=O)NC(=O)Cc3ccc(Br)cc3)cc2[N+](=O)[O-])cc1 (stereo unspecified),1,-2,-0.4,-2.0,-13,0.3%
O=C(NCCN1CCOCC1)c1cc2cc(Br)ccc2oc1=O,8,0,0.4,1.2,-1,-0.4%
CCOC(=O)c1ccc(N2CSC3=C(C#N)C(c4cccs4)CC(=O)N3C2)cc1 (stereo unspecified),-1,-1,0.0,-7.2,-17,4.5%
Cc1sc(NC(=O)/C=C/c2ccco2)c(C(=O)O)c1C,1,-4,-0.4,-2.4,-6,0.2%
COc1ccc(S(=O)(=O)N2CCN(C(=O)CC3CC4CCC3C4)CC2)cc1 (stereo unspecified),-8,7,-0.5,-12,-6,0.0%
COc1ccc(C(=O)C(=NN)c2ccccc2)cc1,5,-10,0.0,1.8,-8,2.4%
C/C(O)=C(/C#N)c1nc2ccccc2[nH]1,-3,7,1.1,-3.0,1,-3.3%
C[C@@H]1CN([C@H](C)CO)C(=O)c2c(c3ccccc3n2C)-c2ccccc2CO[C@H]1CN(C)Cc1ccc(-c2ccccc2)cc1,-15,-25,0.7,-4.4,-5,6.2%
Cc1ccc(S(=O)(=O)Nc2nc3cc(C)c(C)cc3[nH]2)cc1,x,-10,1.6,3.6,-3,4.5%
CCOc1ccc(NC(=S)NC(C)CCc2ccccc2)cc1 (stereo unspecified),7,0,0.3,1.0,-4,-0.9%
CCOc1ccc(-c2cc(C(=O)NCc3cc(C(F)(F)F)cc(C(F)(F)F)c3)[nH]n2)c(C)c1,3,4,-0.3,-2.7,-13,2.1%
CC1CC(C)CN(S(=O)(=O)c2ccc(F)c(C(=O)Nc3ccc(Cl)cc3F)c2)C1 (stereo unspecified),9,2,0.3,0.8,10,x
C(=N\N1CCN(Cc2cccc3ccccc23)CC1)/c1ccco1,u,u,0.7,-3.1,-13,6.4%
CCN(CC)S(=O)(=O)c1ccc2c(c1)nc(SCc1nc3ccsc3c(=O)[nH]1)n2CC,-22,-12,1.6,-2.5,-5,-1.1%
O=C(O)CCCNC(=O)C(c1ccccc1)c1ccccc1,10&-22,1&-2,0.0&-0.6,-4.1&-7.1,0&0,2.3%&3.7%
CCC(=O)c1ccc(OCC(=O)O)cc1,4,6,1.0,-0.8,-5,-0.3%
CCN(CC)c1ccc(NC2CC(=O)N(CCc3ccc(OC)cc3)C2=O)cc1 (stereo unspecified),-18,u,0.2,-0.1,-4,2.2µM*
O=C(NCC1CCCO1)c1ccccc1NS(=O)(=O)c1ccc(Br)s1 (stereo unspecified),2,2,0.3,-4.0,-9,0.7%
C=C(C)C1CC=C(C)/C(=N/NC(=O)COc2ccccc2C)C1 (stereo unspecified),6,0,3.3,-0.5,1,8.0%
O=S(=O)(NCCN1CCCC1)c1cccc2cccnc12,-18,8,-0.5,-2.4,-6,0.5%
CCOC(=O)N1CCC(NC(=O)c2oc3c(c2C)-c2[nH]ncc2CC3)CC1,-10,-1,-0.4,-0.2,4,0.8%
O=C(c1ccc(=O)[nH]c1)N(Cc1ccco1)C1(C(=O)NC2CCCC2)CCCCC1,7,-3,0.0,-4.2,-10,-0.3%
CC(=O)c1cc(CN2CCCCC2)cc(OC(C)C)c1,x,-5,0.0,-6.8,-4,0.8%
COc1ccccc1-n1cc(-c2ccc(C)cc2)[nH]c1=S,-1,-18,-1.6,-3.0,-11,8.9%
COc1ccc(C2Oc3ccccc3C3=C2C(c2cccs2)n2ncnc2N3)cc1 (stereo unspecified),-24,-29,2.8,-3.0,3,6.1%
CCc1ccc(OCC(=O)N2CCN=C2c2ccccc2)cc1,3,-2,-0.8,-3.4,-5,-0.6%
COc1ccc(S(=O)(=O)N(CC(=O)Nc2cccnc2)c2ccccc2OC)cc1,-7,-2,0.2,-0.8,-9,1.2%[38.3 µM]
# New compounds follow
SMILES,CtBP-E1A inh,Six1-Eya2 inh,TRPML1 ag,D2 ag,D2 potentiator,PINK1 expr mod
COc1ccccc1NC(=O)c1ccc2snnc2c1,8,0,-0.6,5.9,2,3.2%
Cc1ccc(C(=O)CSc2nnc(-c3ccccc3)o2)cc1,9,2,3.0,-1.5,-22,x
Cc1ccc(C2NS(=O)(=O)N=C2N)cc1 (stereo unspecified),-2,5,-0.2,0.5,0,3.9%
Cc1cc(C)cc(C(=O)NC(CC(N)=O)c2ccc(N3CCN(C)CC3)c([N+](=O)[O-])c2)c1 (stereo unspecified),-2,-6,-0.5,-1.1,-16,0.8%

# Three of the entries above in order of the Six1-Eya2 inh value, falling.
smiles	Six1-Eya2 inh
Cc1ccc(C2NS(=O)(=O)N=C2N)cc1 (stereo unspecified)	5
Cc1ccc(C(=O)CSc2nnc(-c3ccccc3)o2)cc1	2
Cc1cc(C)cc(C(=O)NC(CC(N)=O)c2ccc(N3CCN(C)CC3)c([N+](=O)[O-])c2)c1 (stereo unspecified)	-6
